Sfp PPTase inh = Sfp phosphopantetheinyl transferase inhibition; Q9F4F7; Biochemical Sfp PPTase activity, qHTS; Potency, µM, without a hit: max response, negative = inhibition, actives largely listed as inhibitors; 310,000 compounds, 3.5% hits; active means well fitted inhibition curve with a large enough effect; inconclusive means small, poorly fitted or top-dose-only effect, or another doubt; inactive means no such curve, though single readings can be large or run the other way;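 further: the enzyme is Sfp with the accession as filed and its product quenches rhodamine fluorescence; potency means the concentration at half of the fitted maximal effect; 0% = enzyme reaction without inhibitor and -100% = no enzyme wells; top concentration of the series not given in the record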
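Buffer: 50 mM Hepes-Na pH 7.6, 10 mM MgCl2, 0.01% Nonidet P-40, 0.01% BSA. Enzyme 15 nM, pre-exposed to compound 15 min; substrates then added and fluorescence change tracked over 30 min.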
ClpP mod = qHTS Assay for Activators of ClpP | purified B. subtilis ClpP, FRET peptide cleavage, 20 min | 340,000 compounds, 1.9% hits | Potency, µM (highest dose often 57.5 µM), inactives show top-dose activity change, negative = active; active = well fitted falling curve with a large enough effect; inconclusive = small, poorly fitted or top-dose-only effect; inactive = no such curve, though single readings can be large or run the other way; further: potency means the concentration at half of the fitted maximal effect; the source files actives as falling curves though it sought activators and does not explain the sign; nearly all actives have a fitted effect of over 65% in size; many hits overshoot -100%
Target sequence (P80244 whole entry, looked up): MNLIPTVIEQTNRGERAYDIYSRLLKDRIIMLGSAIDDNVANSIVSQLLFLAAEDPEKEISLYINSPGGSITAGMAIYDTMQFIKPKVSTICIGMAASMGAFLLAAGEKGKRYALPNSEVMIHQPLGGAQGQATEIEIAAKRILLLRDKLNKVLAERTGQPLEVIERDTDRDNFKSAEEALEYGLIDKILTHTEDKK
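ClpP 10 microg/mL final, pH 8 Tris/KCl buffer with BSA, glycerol, Tween-20; compound pinned in; FRET-FV substrate; RT 20 min; Ex320/Em430; ΔFRET vs ADEP 5.8 microM, DMSO, no enzyme.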
PINK1 expr mod = modulators of PINK1 expression | PINK1 immunofluorescence, high-content cytometry, 24 h | Potency, µM (top dose mostly 76.6 µM), for inactives: at the top dose activation (PINK1 increase), usual class: activators | 410,000 compounds, 0.2% hits; active = well fitted activation curve with a large enough effect; inconclusive = small, poorly fitted or top-dose-only effect; inactive = flat fitted curve, though single readings scatter; cell line not stated here;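 further: potency means the concentration at half of the fitted maximal effect; % of control where 0% means no effect; nearly all actives have a fitted effect of over 65% in size; a mitochondrial uncoupler was the plate control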
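PINK1 protein, normally rapidly degraded, was detected by immunofluorescence after 24 hour compound treatment of a stable cell line. Titration data (5 concentrations) came from laser-scanning cytometry, with CCCP-treated wells as controls.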
TRPML1 agonist = agonists of human TRPML1 channel | Q9GZU1 | TRPML1-expressing cells, Ca2+ dye fluorescence, FDSS; host cell line not named in the record; reference of the full effect not given here | activation, % (concentration not given with the values) | 410,000 compounds, 0.12% hits | AID 624414; in the data active = activation above about 50%; inconclusive = about 30% to 50%; inactive = below about 30%; further: 0% is about no effect; the text of the record puts the active cut at 80%
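Tetracycline-induced TRPML1-DL cells are seeded and incubated overnight before loading with a no-wash Ca2+ dye and quencher. Agonist activity is taken from the 110 s fluorescence read following compound pin-transfer on an FDSS, before EC80 54-4 challenge.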
TRPML1 blocker = blocks the human TRPML1 channel; 390,000 compounds, 0.02% hits; activity change, negative = inhibition, % (test concentration not listed); Q9GZU1; TRPML1-inducible cells, Ca2+ dye fluorescence, FDSS; active compounds read low; inhibition of EC80 agonist-evoked calcium signal; in the data active means activity change below about -50%; inconclusive means about -30% to -50%; inactive means above about -30%;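 further: stimulus is agonist 54-4 at its EC80 concentration; on the % scale 0 is the no-effect control and ±100 the full control effect; compound concentration not given in the record; the text of the record puts the active cut at -80%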
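Calcium fluorescence in TRPML1-DL cells induced overnight with Tet: a 110 s read after compound pin addition, then a 110 s antagonist read after challenge with 54-4 at 4 uM final (EC80).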
Menin MLL FP FL = displaces fluorescein MLL peptide from human menin | FP activity change, % at 61.4 µM | 290,000 tested, under 10 active | AID 1766 | Fluorescence polarization, fluorescein-MLL peptide displacement from menin; inconclusive = falling polarisation curve, or a change in total fluorescence; inactive = total fluorescence flat and polarisation flat or rising; no compound was filed as active; the % refers to the polarisation; negative = inhibition;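 further: % of control where 0% means no effect; inhibitors lower the polarisation; unlabelled MLL peptide was the positive control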
TRPV1 PAM = enhances activation of the human vanilloid receptor TRPV1; Q8NER1; TRPV1-expressing cells, Fluo-8 calcium influx, capsaicin EC20 potentiation; host cell line not named in the record; control for the full effect not named in the record; potentiation, % at 8.33 µM; 320,000 compounds, 0.02% hits; active means potentiation above 80%; inconclusive means 30% to 80%; inactive means below 30%; further: 0% is about no effect
Target sequence (Q8NER1 whole entry, looked up): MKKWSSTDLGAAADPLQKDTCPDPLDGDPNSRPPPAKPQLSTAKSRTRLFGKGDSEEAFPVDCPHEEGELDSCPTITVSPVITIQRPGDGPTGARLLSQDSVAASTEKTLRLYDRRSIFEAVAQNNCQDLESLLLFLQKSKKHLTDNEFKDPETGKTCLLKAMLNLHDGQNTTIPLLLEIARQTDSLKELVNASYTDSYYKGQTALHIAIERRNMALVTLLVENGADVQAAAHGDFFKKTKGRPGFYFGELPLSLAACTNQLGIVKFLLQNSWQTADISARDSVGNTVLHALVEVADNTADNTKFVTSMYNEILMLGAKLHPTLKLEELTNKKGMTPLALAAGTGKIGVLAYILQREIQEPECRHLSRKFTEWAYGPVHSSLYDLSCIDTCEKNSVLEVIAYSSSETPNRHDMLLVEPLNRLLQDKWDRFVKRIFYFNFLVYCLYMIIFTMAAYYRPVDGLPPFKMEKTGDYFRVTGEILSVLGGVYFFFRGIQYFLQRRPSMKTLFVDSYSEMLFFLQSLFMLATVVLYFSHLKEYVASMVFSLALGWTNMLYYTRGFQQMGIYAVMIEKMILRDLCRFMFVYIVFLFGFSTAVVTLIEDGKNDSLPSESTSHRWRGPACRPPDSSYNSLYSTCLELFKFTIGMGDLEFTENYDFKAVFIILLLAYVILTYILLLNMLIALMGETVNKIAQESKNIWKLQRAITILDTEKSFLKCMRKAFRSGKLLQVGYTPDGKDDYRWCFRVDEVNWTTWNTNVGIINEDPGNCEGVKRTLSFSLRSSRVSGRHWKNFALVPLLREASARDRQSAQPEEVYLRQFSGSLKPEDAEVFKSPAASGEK
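Cells expressing TRPV1 were dye-loaded with Fluo-8 and read kinetically: 10 s baseline, 3 min after compound (agonist portion), then 2 min after EC20 capsaicin (allosteric enhancer portion). Calcium-bound dye fluorescence at 480/520 nm.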
* hit, by the source's call; ? = inconclusive; / = no result given; & = joins results of further samples; [ ] = another dose, or the depositor's remark.

Values in the order – TRPML1 blocker	TRPML1 agonist	Menin MLL FP FL	Sfp PPTase inh	ClpP mod	PINK1 expr mod	TRPV1 PAM
C/C(=N\NS(=O)(=O)c1ccc(Br)cc1)c1cccs1
 : 31	0.8	2.1	11%	-0.7%	0.9%	2
O=C(Nc1cc(C(F)(F)F)ccc1Cl)C(Sc1cccc[n+]1[O-])c1ccccc1 (configuration not stated)
 : 2	0.1	9.0	-11%	0.8%	0.9%	-2
CN(C)S(=O)(=O)c1ccc(N2CCCC2)c(C(=O)NNC(=O)COc2ccc(Cl)cc2)c1
 : 3	0.6	/	26%	-3.0%	-0.3%	-1
CCOc1ccccc1C=C1SC(=S)NC1=O
 : -9	-1.4	/	/	/	?	/
Cc1ccc(NC(=O)COC(=O)Cn2c(C)csc2=O)cc1C
 : -3	-0.6	-4.3	-5%	-1.2%	4.4%[38.3 µM]	?
Cc1cc(-n2c(C)nc3ccccc3c2=O)ccc1NC(=O)c1ccc([N+](=O)[O-])cc1
 : -16	-1.0	/	/	1.9%	2.5%	/
S=C(NCc1ccco1)N1CCOCC1
 : 3	0.0	-0.5	4%	/	-0.4%	-5
COc1cc(/C=N/NC(=O)Cc2nnc(N)s2)cc(OC)c1OC
 : -2	3.7	1.8	-8%	-25%	1.6%	-4
CCOC(=O)c1ccc(NC(=O)C(C)NS(=O)(=O)c2ccc(OC)cc2)cc1 (configuration not stated)
 : 5	1.5	4.0	?	-6.7%	-1.9%	0
Cc1cc([N+](=O)[O-])ccc1NC(=S)NC(=O)C(c1ccccc1)c1ccccc1
 : -14	0.1	3.3	31%[activator]	-10%	13%	-2
S=C1NNC2(NN1)C1CC3CC(C1)CC2C3
 : 8	-0.9	-1.3	-3%	-0.1%	0.4%	11
C/C(=N\O)C(C)(C)Nc1ccc(Cl)cc1
 : -8	5.1	2.3	-2%	/	1.4%	-5
Cn1c2ccccc2c2c(C(=O)N3CCN(c4ccccn4)CC3)cn(C3CCCC3)c(=O)c21
 : 12	-0.2	-0.7	-3%	32µM*	4.8%	-5
CC(=O)NCCOc1cccc2cccnc12
 : 18	1.6	-1.9	10%	-3.8%	/	6
CCCCOC(=O)c1ccc(-n2nnc3c(sc4nc(C)cc(C)c43)c2=O)cc1
 : -1	0.7	/	/	1.2%	2.6%	/
C/C(=N\Nc1ccc(Cl)c(C(=O)O)c1)c1cccs1
 : 9	-0.3	9.7	?	-7.6%	0.2%	1
CCC(=O)N1CCc2cc(Br)cc(S(=O)(=O)N3CCN(c4ccc(C)cc4)C(C)C3)c21 (configuration not stated)
 : -7	-0.9	/	/	1.1%	0.6%	/
CCc1ccc(Nc2cc(C)nc3nc(Cc4ccc(Cl)cc4)nn23)cc1
 : 79	3.4	/	/	?	?	/
COc1ccc(OCC(=O)Sc2ccc(C)cc2)cc1
 : 38	0.3	2.4	-15%	0.9%	-0.6%	-3
O=C(CN1C(=O)CCC1=O)Nc1cccc(NC(=O)CN2C(=O)CCC2=O)c1
 : -13	0.9	-0.7	22%	1.2%	0.5%	-14
Cc1ccc(S(=O)(=O)N2CCN(C(=O)CSCc3ccc(C(C)C)cc3)CC2)cc1
 : 3	-0.5	/	/	-3.1%	0.7%	-6
S=C(NC1CCCCC1)N(CCc1ccccc1)CCc1ccccc1
 : 39	7.1	3.0	5%	0.8%	3.7%	14
CCc1ccccc1NC(=O)CN1CCN(CC(=O)Nc2ccc3c(c2)OC2(CCCCC2)O3)CC1
 : 20	3.0	/	/	-2.8%	1.6%	/
Cc1cccc(OCCCC(=O)NNC(=O)c2ccccn2)c1
 : -6	0.0	/	/	0.5%	2.4%	27
C#CCOCCOCCOCCNc1nc(N2CCOCC2)nc(N2CCN(C(=O)CCCCCCCCCCNC(=O)[C@@H](CCSC)n3cc(CCO)nn3)CC2)n1
 : -12	-0.1	/	/	-3.1%	-0.7%	5
Clc1ccc(-c2cc(COc3ccccc3)no2)cc1Cl
 : -7	2.7	4.7	3%	0.7%	6.5%	5
COc1ccc(C2CC(=O)N3CN(C4CCCCC4)CSC3=C2C#N)cc1 (configuration not stated)
 : 0	-0.7	/	/	2.1%	2.5%	/
Cc1ccc(C2=NNC(=Nc3ccc(F)cc3)SC2)cc1
 : 10	0.2	-1.3	?	/	?	6
COc1ccc(-c2cc3ccccc3n2CC(O)CN2CCN(CCO)CC2)cc1 (configuration not stated)
 : 14	0.7	-1.4	15%	4.5%	3.1%	/
Cc1cc(=O)c2ccccc2n1CC(=O)NCc1ccccc1
 : -12	-1.1	9.8	7%	0.5%	-0.1%	0
CCOCCc1nn2c(=O)cc(COC(=O)c3ccccc3Br)nc2s1
 : -3	-0.1	/	/	-3.8%	2.3%	/
COc1cccc(-c2nc(CS(=O)(=O)CC(=O)NCc3ccc(Cl)cc3)c(C)o2)c1
 : 4	-0.4	1.6	8%	-2.0%	9.8%	-4
COc1cc2c(cc1NC(=O)c1cc(-c3ccccn3)nc3ccccc13)oc1ccccc12
 : -6	-0.4	-5.2	-2%	/	-0.9%	-13
OCc1cc(-c2ccc(Cl)c(Cl)c2)on1
 : 25	0.1	2.7	12%	/	0.9%	0
Cc1ccccc1OCCNc1ccc(C(F)(F)F)cc1[N+](=O)[O-]
 : 10	0.5	2.7	3%	1.6%	3.2%	0
C[C@H](NC(=O)c1[nH]cnc1C(=O)Nc1ccc(CNC(=O)OC(C)(C)C)cc1)C(=O)OC(C)(C)C
 : -1	2.4	-3.6	27%	-1.7%	2.6%	3
CCc1nnc(NC(=O)CSc2nncc(=O)n2N)s1
 : -10	0.2	-1.9	-6%	-2.9%	0.3%	0
Cc1ccc(S(=O)(=O)N(C)CC(=O)NNC(=O)Cc2cccc(F)c2)cc1
 : -6	1.0	/	/	-1.4%	5.0%	-5
Cn1nnnc1SCC(=O)Nc1cc(S(=O)(=O)N2CCCCC2)ccc1Cl
 : 6	-1.1	/	/	/	3.1%	/
COc1ccc(CCNC(=O)CCc2ccc(OC)cc2)cc1
 : -2	-0.4	-9.1	6%	0.7%	0.0%	-3
CC1CCCCN1CCNC(=O)CCc1nnc2n(Cc3ccccc3)c(=O)c3ccccc3n12 (configuration not stated)
 : 8	0.0	-3.7	-7%	-13%	0.1%	5
O=C(CSc1nnc(Nc2ccccc2F)s1)NC1CC1
 : -3	1.8	/	/	1.0%	1.6%	25
CCOC(=O)c1c(NC(=O)OC)sc(C(=O)N(CC)CC)c1C
 : 6	-1.0	2.0	22µM*	-0.4%	-0.7%	-11
O=C(NCC1CC1)c1ccc(-c2cn[nH]c2)c2ccoc12
 : /	-1.0	/	/	4.5%	4.0%	/
CC(C)=CCN1CCN(Cc2nc(-c3ccccc3)cs2)CC1CCO (configuration not stated)
 : 11	0.9	-2.9	-25%	2.5%	-1.1%	-3
COc1ccc(C(=O)CSc2n[nH]c(=O)n2Cc2ccco2)cc1
 : -10	2.7	3.6	1%	/	-0.9%	2
COc1ccc(/C=C2\SC(=O)N(CC(=O)N(C)C3CCS(=O)(=O)C3)C2=O)cc1 (configuration not stated)
 : -14	-0.1	-8.2	15%	-2.9%	-0.5%	1
COc1cc2nc(NC(=O)c3ccc(S(=O)(=O)N4CCc5ccccc54)cc3)sc2cc1OC
 : 2	0.4	/	/	-11%	-4.3%	/
CC(OC(=O)c1cccc(-n2cnnn2)c1)C(=O)Nc1ccccc1F (configuration not stated)
 : 10	0.0	/	/	-2.9%	-1.4%	?
CCOC(=O)c1c(-c2ccc(OC)c(OC)c2)csc1NC(=O)c1ccccc1F
 : -11	0.2	/	/	-3.2%	1.3%	/
O=C(c1cc([N+](=O)[O-])ccc1Cl)N1CCc2ccccc21
 : -4	-1.0	-1.9	18%	?	0.6%	8
CC(=O)Nc1ccc(NC(=O)COc2cccc3c2OC(C)(C)C3)cc1
 : -20	0.4	-2.1	11%	/	2.8%	4
O=S(=O)(CCN1CCOCC1)c1ccc(Oc2ccc(S(=O)(=O)CCN3CCOCC3)cc2)cc1
 : -11	-0.8	4.3	9%	-0.7%	-0.3%	3
CSc1cccc(CN2CCC(Oc3cccc(C(=O)N4CCCC4)c3)CC2)c1
 : -6	0.0	-1.2	5%	-3.4%	-3.3%	-26
CCc1ccc(NC(=O)CCn2cccc2)cc1
 : -12	3.5	3.8	-4%	-3.0%	-2.6%	-29
Cc1ccc(Cl)cc1Nc1nn2c(=O)c3ccc(C(=O)NC4CCC(C)CC4)cc3nc2s1 (configuration not stated)
 : -11	0.4	/	/	?	-0.5%	/
N#Cc1sc2nc3c(cc2c1N)CCCC3
 : 11	1.0	0.3	9%	-11%	-0.2%	-1
CN1/C(=C\C(=O)C[n+]2ccc(C(=O)c3ccccc3)cc2)C(C)(C)c2ccccc21
 : -7	1.4	-2.1	0%	0.0%	8.7%	-5
CCC(C)C(=O)Nc1nnc(-c2cccs2)s1 (configuration not stated)
 : 38	3.3	1.5	50µM*	32µM*	0.2%	-18
CCOc1ccc(C(=O)Nc2ccc(NC(=O)c3ccccc3)cc2)cc1Br
 : 14&-1	1.7&0.0	-2.5	10%	-10%&-11%	2.9%&0.7%	-9

Additional compounds follow.
Values in the order – TRPML1 blocker	TRPML1 agonist	Menin MLL FP FL	Sfp PPTase inh	ClpP mod	PINK1 expr mod	TRPV1 PAM
CCOc1ccc(N(CC(=O)NCCc2ccc(OC)cc2)S(C)(=O)=O)cc1
 : 5	3.3	-1.1	17%	0.1%	-0.1%	1
COc1ccccc1C(=O)NNC(=O)c1cccc(F)c1
 : 25	0.5	2.1	1%	/	3.8%	-24
CCN(CC)C(=O)CSc1nnc(-c2ccc(O)cc2)n1CC1CCCO1 (configuration not stated)
 : 7	-0.8	-0.7	3%	1.2%	-1.3%	-7
O=C(CCCc1nc2ccccc2s1)Nc1ccccc1
 : 8	-0.9	-2.6	2%	/	-0.2%	-5
Cc1ccc(S(=O)CCNC(=O)Cc2ccc(Cl)cc2)cc1 (configuration not stated)
 : 16	0.4	-0.9	19%	/	-0.7%	-28
CC(=O)c1ccc(NC(=O)c2sc3nc(C)c(C)c(C)c3c2N)cc1
 : -11	-1.0	0.4	15%	-4.4%	3.4%	-1
Cc1nc(CNS(=O)(=O)c2ccc(Br)cc2)cs1
 : 34	-0.5	-4.4	12%	/	1.5%	1

From PubChem
